GLA inh pH 4.5: blocks human alpha-galactosidase A at pH 4.5; 230,000 tested, under 10 active; purified enzyme, 4-MU-alpha-Gal fluorescence, pH 4.5; activity change, negative = inhibition, % at 105 µM; P06280; AID 1467; inconclusive = small, poorly fitted or top-dose-only inhibition, or a rising curve; inactive = flat fitted curve, though single readings scatter; no compound was filed as active;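 further: 0% = full activity with enzyme and -100% = basal without enzyme; dose as in the result columns while the protocol names 77 µM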
Target sequence (P06280 whole entry, looked up): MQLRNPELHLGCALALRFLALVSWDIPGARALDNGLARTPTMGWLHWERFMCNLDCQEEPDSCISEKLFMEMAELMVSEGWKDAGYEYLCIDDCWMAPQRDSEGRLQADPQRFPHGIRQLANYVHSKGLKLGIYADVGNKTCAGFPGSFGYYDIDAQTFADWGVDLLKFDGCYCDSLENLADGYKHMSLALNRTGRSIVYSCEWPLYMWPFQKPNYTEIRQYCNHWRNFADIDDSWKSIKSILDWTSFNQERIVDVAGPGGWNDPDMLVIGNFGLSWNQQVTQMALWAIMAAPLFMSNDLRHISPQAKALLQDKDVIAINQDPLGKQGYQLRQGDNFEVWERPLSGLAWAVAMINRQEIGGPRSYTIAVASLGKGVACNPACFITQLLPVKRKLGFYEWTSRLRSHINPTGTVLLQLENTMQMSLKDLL
Numbers without * were called inactive; & = joins results of further samples. A portion of the library; count on the stated rates, not on these rows.

mol | GLA inh pH 4.5
Cc1cccc(-c2cccc(-c3cc(=O)oc4cc5c(cc34)OCO5)c2)c1 | 6
Cc1cc(N)c2ccccc2[n+]1CCCCCCCCCC[n+]1c(C)cc(N)c2ccccc21 | 3&0&3&3
C=C/C(C)=C/[C@@]1(C)SC(=O)C(C)=C1O | -12
O=C1C=CC(=O)C2=C1C1c3ccccc3C2c2ccccc21 | -8
COC(=O)c1ccc(C(NC(=O)OCc2ccccc2)/C(=C/[C@@H](C)C(=O)NCc2cc(C)n(C)n2)c2cccnc2)cc1 (stereo partly drawn) | -8
Cc1cn([C@@H]2C[C@H](N=[N+]=N)[C@H](CO)O2)c(=O)[nH]c1=O | -5
COc1cc(NC(=O)O[C@@H]2C(=O)c3cc(Br)ccc3O[C@H]2c2ccc3c(c2)OCO3)cc(OC)c1OC | -3
COc1ccc(-c2cc(=O)c3c(O)cc(O)c(-c4cc(-c5cc(=O)c6c(O)cc(O)cc6o5)ccc4OC)c3o2)cc1 | -4
CC(C)C[C@@H](CC(=O)N[C@@H](CCCN)CC(=O)N[C@@H]1CCCC[C@H]1C(=O)N[C@H](CC(=O)N[C@@H](CCC(=O)O)CC(=O)O)Cc1c[nH]c2ccccc12)NC(=O)[C@@H]1CNCC[C@H]1N | -3
CC(C)Cn1nnnc1S(=O)(=O)CC#N | -5
O=C(/C=C/c1ccc(O)cc1)c1ccccc1O | -18
CCCn1c(C)nc2c(NCCN3CCOCC3)nc(C)nc21 | 1
COc1ccc(/C=C/c2cc(OC)cc(=O)o2)cc1 | -5
CCC(=O)OCC(=O)C1(OC(=O)CC)C(C)CC2C3CCC4=CC(=O)C=CC4(C)C3(Cl)C(O)CC21C (stereo not drawn) | -4
C=CCOC(=O)N[C@@H](c1ccc(Br)cc1)C(C(C)=O)C(C)=O | -5
COC(=O)C1(C(=O)OC)C[C@@H]2CON=C2[C@H]1c1ccccc1 | -7&0
CCCCCCCCCCCCCCC(C(=O)O)C(O)(CC(=O)OC)C(=O)O (stereo not drawn) | 2
COc1ccccc1N1CCN(C[C@@H](C(=O)NC(C)(C)C)c2ccccc2)CC1 | -8
CNC1=CN=C(c2ccccc2)c2cc(Cl)ccc2N1 | -2
COCCN(CCOC)c1nc(C)nc2c1nc(-c1ccccc1)n2CCN1CCCC1 | -1
CC[C@@H]1CN2CCc3cc(OC)c(OC)cc3[C@H]2C[C@@H]1C[C@H]1NCCc2cc(OC)c(OC)cc21 | -6
O=c1[nH]c(=O)n([C@H]2C[C@H](O)[C@@H](CO)O2)cc1/C=C/Br | 0
Cc1cccc([C@H]2[C@@H]3C=CCC[C@@]3(C)C(=O)N2Cc2ccccc2)c1 | -8
CCCCCC/C=C1\CC(C(=O)OCC)Oc2ccccc21 (stereo not drawn) (tested in a mixture with another compound) | -13
CC(C)[C@@H](CC(=O)N[C@@H]1CCCC[C@H]1C(=O)N[C@H](CC(=O)N[C@@H](CCC(=O)O)CC(=O)O)Cc1ccccc1)NC(=O)C[C@H](Cc1ccccc1)NC(=O)[C@@H]1CNCC[C@H]1N | -8
Cc1cc(O)c(C=O)c(O)c1C(=O)O | -4
CN1C[C@H](C(=O)N[C@@]2(C)O[C@@]3(O)C4CCCN4C(=O)C(Cc4ccccc4)N3C2=O)C[C@H]2c3cccc4[nH]cc(c34)C[C@H]21 (stereo partly drawn) | 0
CC12CC[C@@](C(=O)O)(C(=O)C1=O)C2(C)C | 4
COC(=O)[C@@]1(Cc2ccc(F)cc2)[C@H]2c3cc(C(=O)N4CCCC4)n(Cc4ccc(C)c(F)c4F)c3C[C@H]2CN1C(=O)c1ccccc1 | -19
Cc1cccc(C)c1Nc1oc(-c2ccccc2)nc1-c1ccccc1F | -1
COc1ccc(C(C)C(=O)c2ccc(O)cc2O)cc1 (stereo not drawn) | -3
CN(C)C(=O)[C@H]1C[C@@H]1[C@H](NC(=O)OCc1ccccc1)c1ccccc1 | -6
OB(O)c1ccc(Cl)s1 | -2
CCC(=O)OCC(=O)[C@@]1(OC(=O)CC)[C@@H](C)C[C@H]2[C@@H]3CCC4=CC(=O)C=C[C@]4(C)[C@@]3(F)[C@@H](O)C[C@@]21C | -12
O=C(O)COCCN1CCN([C@@H](c2ccccc2)c2ccc(Cl)cc2)CC1 | 4
C[C@]12C[C@H](O)C3[C@@H](CCC4=CC(=O)CC[C@@]43C)[C@@H]1CC[C@@H]2C(=O)CO (stereo partly drawn) | 3
O=C(NCc1ccc2c(c1)OCO2)O[C@@H]1C(=O)c2cc(Br)ccc2O[C@H]1c1ccc2c(c1)OCO2 | 1
CNC1C(O)C(O)C(CO)O[C@H]1OC1C(O[C@@H]2C(O)C(O)[C@@H](N=C(N)N)C(O)C2N=C(N)N)OC(C)[C@]1(O)C=O (stereo partly drawn) | -3
COc1ccc(-c2nc(-c3ccccc3)oc2Nc2ccc3ccccc3c2)cc1 | -1
CCC1OC(=O)C(C)[C@@H](O[C@H]2C[C@@](C)(OC)C(O)C(C)O2)C(C)[C@@H](O[C@@H]2OC(C)CC(N(C)C)C2O)[C@@](C)(O)CC(C)CN(C)C(C)C(O)[C@]1(C)O (stereo partly drawn) | 0
COC(=O)/C(C)=C/CC12OC(C)(C)C3CC(C=C4C(=O)c5cc6c(c(CCC(C)(C)Cl)c5OC431)OC1(C)CCC(=C(C)C)C6C1)C2=O (stereo not drawn) | 4
CCCCCC#CC[C@@H](O)/C=C/C=C/C=C\[C@@H](O)CCCC(=O)O | -1
COC(=O)CNC(=O)[C@@]1(C)C=C[C@@H](Cc2ccccc2)N1C(C)=O | -3
CCCn1c(-c2ccc(F)cc2)nc2c(NC(C)CCCN(CC)CC)nc(C)nc21 (stereo not drawn) | -5
COC(=O)[C@@]1(Cc2ccc(OC)cc2)[C@H]2c3cc(C(=O)N(C)C)n(CCO)c3C[C@H]2CN1C(=O)c1ccccc1 | 0
N[C@H](CCCP(=O)(O)O)C(=O)O | 4&1
COC1C[C@@H](O[C@@H]2C(C)C(=O)OC(C)C(C)C(O)C(C)C(=O)[C@@]3(CO3)CC(C)C(OC3OC(C)CC(N(C)C)C3O)C2C)OC(C)[C@@H]1O (stereo partly drawn) | -5
CN[C@H]1[C@@H](O[C@@H]2[C@H](O[C@@H]3[C@@H](O)[C@@H](O)[C@@H](N=C(N)N)[C@@H](O)[C@@H]3N=C(N)N)O[C@H](C)[C@@]2(O)C=O)O[C@@H](CO)[C@@H](O)[C@H]1O | -3
Brc1ccc2c(c1)c1cc(Br)ccc1n2CC1CO1 (stereo not drawn) | -23
COc1ccc(NC(=O)N2CCc3nc(-c4ccc(OC)cc4C)c4c(c3C2)CO[C@@H](c2ccccc2)C4)cc1 | -4
C[C@@]12CCC(OC(=O)c3ccccc3)CC1CCc1ccccc12 (stereo partly drawn) | -3
COC(=O)[C@@]1(Cc2ccc(OC)cc2)[C@H]2c3cc(C(=O)N(C)C)n(CCF)c3C[C@H]2CN1C(=O)c1ccccc1 | -30
CCCC(=O)NCCc1c2n(c3ccc(OC)cc13)CCCc1ccccc1-2 | -6
C=CCOC(=O)NC(c1ccc(F)c(F)c1)C(C(C)=O)C(=O)OC (stereo not drawn) | 2
O=C(/C=C/c1ccc(O)c(O)c1)O[C@@H]1C[C@@](O)(C(=O)O)C[C@H](O)[C@@H]1O | -11
N[C@@H](CSS(=O)(=O)O)C(=O)O | 6
CC(=O)Oc1c(C)cc(OCC(O)CNC(C)C)c(C)c1C (stereo not drawn) | 0
CO[C@]1(NC(=O)[C@H](C(=O)O)c2ccc(O)cc2)C(=O)N2C(C(=O)O)=C(CSc3nnnn3C)CO[C@H]21 | 4
CC(=O)OC1CCC2(C)C3CC(=O)C4(C)C(CC5OC6(CCC(C)CO6)C(C)C54)C3CC[C@H]2C1 (stereo partly drawn) | 9
C[C@@]12CCC(O)C[C@H]1CCc1ccccc12 (stereo partly drawn) | -7

Filtered by structure, the entries above with a Cl atom
mol | GLA inh pH 4.5
CCC(=O)OCC(=O)C1(OC(=O)CC)C(C)CC2C3CCC4=CC(=O)C=CC4(C)C3(Cl)C(O)CC21C (stereo not drawn) | -4
CNC1=CN=C(c2ccccc2)c2cc(Cl)ccc2N1 | -2
OB(O)c1ccc(Cl)s1 | -2
O=C(O)COCCN1CCN([C@@H](c2ccccc2)c2ccc(Cl)cc2)CC1 | 4
COC(=O)/C(C)=C/CC12OC(C)(C)C3CC(C=C4C(=O)c5cc6c(c(CCC(C)(C)Cl)c5OC431)OC1(C)CCC(=C(C)C)C6C1)C2=O (stereo not drawn) | 4

A different layout for four compounds above.
GLA inh pH 4.5 | structure
2 | CCCCCCCCCCCCCCC(C(=O)O)C(O)(CC(=O)OC)C(=O)O (stereo not drawn)
-8 | O=C1C=CC(=O)C2=C1C1c3ccccc3C2c2ccccc21
6 | Cc1cccc(-c2cccc(-c3cc(=O)oc4cc5c(cc34)OCO5)c2)c1
-5 | CC(C)Cn1nnnc1S(=O)(=O)CC#N

Further compounds
mol | GLA inh pH 4.5
CO[C@@H]1C=CO[C@]2(C)Oc3c(C)c(O)c4c(O)c(c(C=NN5CCN(C)CC5)c(O)c4c3C2=O)NC(=O)C(C)=CC=C[C@H](C)[C@H](O)[C@H](C)[C@H](O)[C@H](C)[C@H](OC(C)=O)[C@H]1C | -3
C=C1C[C@@]23C[C@]1(O)CC[C@@H]2[C@]12C=C[C@@H](O)[C@](C)(C(=O)O1)[C@H]2[C@H]3C(=O)O | -4
FC(F)(F)c1ccccc1-c1ccc2ncnc(NC3CCNCC3)c2c1 | -1
CC(=O)OCC(=O)[C@@]1(O)CCC2C3CCC4=CC(=O)CC[C@]4(C)C3C(O)C[C@]21C (stereo partly drawn) | 4
COCC(=O)N1CCc2nc(COc3ccccc3)c3c(c2C1)CO[C@@H](C)C3 | -1
Cc1cc(F)c(Nc2ncnc3cc(OCc4ccccc4)ccc23)cc1O | -6
C=C(C)C(=O)c1ccc(OC)cc1 | 0
CCN[C@@H]1CN(CCCOC)S(=O)(=O)c2sc(S(N)(=O)=O)cc21 | 9
COC(=O)C/C=C/[C@@H](C)[C@H](OC)c1c(Br)ccc2c1OCO2 | -5
CN(N=O)C(=O)N[C@H]1[C@@H](O)[C@H](O)[C@H](CO)O[C@@H]1O | 3
CCC(=O)C(C(=O)OC)[C@H](CCc1ccccc1)NC(=O)OC (stereo partly drawn) | 5
COc1ccccc1-c1cc(=O)c2cccc(OC)c2o1 | -2
COC(=O)[C@@]1(Cc2ccccc2)[C@H]2c3cc(C(=O)N4CCCC4)n(Cc4ccccc4)c3C[C@H]2CN1C(=O)c1ccccc1 | -10
O=C1C(c2[nH]c3ccc(S(=O)(=O)O)cc3c2O)=Nc2ccc(S(=O)(=O)O)cc21 | -8
COCCNc1ccnc(-c2ccccc2CN(C)C)n1 | 6
O=C(c1cccc(Cl)c1)N1CCC(=O)N([C@H](COCc2cccc(Cl)c2)Cc2ccccc2)CC1 | -11
Nc1ccn([C@@H]2O[C@H](CO)[C@@H](OP(=O)(O)O)[C@H]2O)c(=O)n1 | 3
c1ccc(CNc2ccnc(-c3ccc4c(c3)OCO4)n2)cc1 | -1
CNC(CC(=O)O)C(=O)O (stereo not drawn) | -1
C[C@@H](C(=O)Cc1ccc2ccccc2c1)[C@@H]1C[C@@]1(C)[C@@H](NP(=O)(c1ccccc1)c1ccccc1)c1ccccc1 | -9
CCCCC/C=C\C/C=C\C/C=C\C=C\C1CCCC(=O)O1 (stereo not drawn) | 3
CCS(=O)(=O)N(C)[C@@H]1c2cc(C#N)ccc2OC(C)(C)[C@H]1O | -8&-5
CC(C)(Oc1ccc([C@@H]2CC2(Cl)Cl)cc1)C(=O)O | 3
CC(=O)O[C@@H]1C(=O)[C@@]2(C)[C@H](O)C[C@H]3OC[C@]3(OC(C)=O)[C@@H]2[C@H](OC(=O)c2ccccc2)[C@@]2(O)C[C@H](OC(=O)[C@@H](O)[C@@H](NC(=O)c3ccccc3)c3ccccc3)C(C)=C1C2(C)C (stereo in doubt) | -2
OC[C@H]1O[C@@H](OC[C@H]2O[C@@H](O)[C@H](O)[C@@H](O)[C@@H]2O)[C@H](O)[C@@H](O)[C@@H]1O | 2
COC(=O)[C@@]1(Cc2ccc(F)cc2)[C@H]2c3cc(C(=O)N(C)C)n(Cc4ccsc4Br)c3C[C@H]2CN1C(=O)c1ccccc1 | -11
COc1cc2oc(=O)cc(-c3ccc(-c4cccc(N)c4)cc3)c2c(OC)c1OC | -8
CC(C)(C)c1ccc(C(=O)N2CCC(=O)N([C@H](COCc3ccc(Cl)cc3)Cc3ccccc3)CC2)cc1 | -2
CCCCC/C=C\C/C=C\C/C=C\CCCCC(=O)NC(C)C(=O)O (stereo not drawn) | -3
COc1cccc(-c2nc(N3CCNCC3)c3ccccc3n2)c1 | 8
COc1ccc(-c2nc(-c3ccccc3)c(NC(C)C)o2)cc1 | -4
Cc1ccc(/C=C/C2=C[C@]3(C)C[C@]2(C)[C@H](c2ccc(C)cc2)CC3=O)cc1 | -2
CC(=O)N1[C@H](Cc2ccccc2)C=C[C@]1(C)C(=O)O | 6
CNC1C(OC2C(O[C@@H]3C(O)C(O)[C@@H](N=C(N)N)C(O)C3N=C(N)N)OC(C)[C@@]2(O)CO)OC(CO)C(O)C1O (stereo partly drawn) | -2
CC(=O)N[C@H](Cc1c[nH]c2ccccc12)C(N)=O | 3
Cc1cc(=O)c2c(O)cc(O)c(C)c2o1 | 2
[N-]=[N+]=Nc1nc2c(N)ncnc2n1C1OC(CO)C(O)C1O (stereo not drawn) | 9
O=P1(O)Oc2c(c(-c3ccccc3)cc3ccc4ccccc4c23)-c2c(-c3ccccc3)cc3ccc4ccccc4c3c2O1 | -12

High-throughput results: PubChem, National Center for Advancing Translational Sciences (NCATS)
